# StopGo RLuc = lowers the Renilla signal of an FMDV 2A StopGo reporter | HEK cells with a luciferase reporter of 2A StopGo recoding | 0.32% of 120,000 active | Potency, µM (series often up to 57.5 µM), inactives show at the highest dose signal change, negative = less light | AID 1745857; active means well fitted falling curve with a large enough effect; inconclusive means small, poorly fitted or top-dose-only effect; inactive means no such curve, though single readings can be large or run the other way; further: nearly all actives have a fitted effect of over 55% in size; overnight with compound
# StopGo FLuc = FMDV 2A StopGo reporter, firefly signal; HEK cells with a luciferase reporter of 2A StopGo recoding; Potency, µM (series often up to 57.5 µM), without a hit: top-dose signal change, negative = less light; 0.23% of 120,000 active; AID 1745856; active = well fitted falling curve with a large enough effect; inconclusive = small, poorly fitted or top-dose-only effect; inactive = no such curve, though single readings can be large or run the other way; further: nearly all actives have a fitted effect of over 60% in size; overnight with compound
# Active calls of the source: *; ? = inconclusive; & = joins results of further samples; [ ] = remark or other dose. On the % scale 0 is the no-effect control and ±100 the full control effect; potency means the concentration at half of the fitted maximal effect.
SMILES,StopGo RLuc,StopGo FLuc
CC(C)CCNC(=O)c1ccc(Cn2c(SCC(N)=O)nc3ccccc3c2=O)cc1,16%,2%
N/C(COc1ccc2ccccc2c1)=N\O,8%,40%[activator]
CC(C)CC(C)N(C)C(=O)NCc1cccc(N(C)C)c1 (stereo not given),0%,6%
Cn1c(SCC(=O)Nc2cccc(C(=O)O)c2)nnc1-c1ccc(Cl)cc1,-11%,2%
O=C(CSc1nnc2ccc(-c3cccs3)nn12)N1CCN(c2ccccc2)CC1,33%[activator],9%
CC(=O)Nc1ccc(C2C(C#N)=C(N)OC3=C2C(=O)CC(C)(C)C3)cc1 (stereo not given),9%[1.06 µM],?
Nc1nc(NCc2ccc(Cl)c(Cl)c2)c2[nH]cnc2n1,-17%,7%
CCOc1ccc(Sc2cc(C(=O)NC(C)CC)c3ccccc3n2)cc1 (stereo not given),-15%,-24%
O=S(=O)(Nc1cccc(-c2ccc(N3CCCC3)nn2)c1)c1cccc(C(F)(F)F)c1,83%[activator],0%
CCN(CCCNC(=O)CSc1cc(=O)n(C)c2ccccc12)c1ccccc1,13%,-7%

# Ordered by molecular weight (ascending): some entries from above
SMILES,StopGo RLuc,StopGo FLuc
CC(C)CC(C)N(C)C(=O)NCc1cccc(N(C)C)c1 (stereo not given),0%,6%
Nc1nc(NCc2ccc(Cl)c(Cl)c2)c2[nH]cnc2n1,-17%,7%
CC(=O)Nc1ccc(C2C(C#N)=C(N)OC3=C2C(=O)CC(C)(C)C3)cc1 (stereo not given),9%[1.06 µM],?
Cn1c(SCC(=O)Nc2cccc(C(=O)O)c2)nnc1-c1ccc(Cl)cc1,-11%,2%
CCN(CCCNC(=O)CSc1cc(=O)n(C)c2ccccc12)c1ccccc1,13%,-7%
O=C(CSc1nnc2ccc(-c3cccs3)nn12)N1CCN(c2ccccc2)CC1,33%[activator],9%

# (listing goes on)
SMILES,StopGo RLuc,StopGo FLuc
CC(CCc1ccccc1)NC(=O)C(=O)NCc1n[nH]c(=O)c2ccccc12 (stereo not given),0%,7%
Cc1cccn2c(=O)c(C(=O)NCc3ccc(F)cc3)c(O)nc12,1%,-8%
O=C(Cc1cccs1)NCC12CC3CC(CC(C3)C1)C2,14%,15%
CC(C)c1ccc(S(=O)(=O)N2CCC(C(=O)Nc3nccs3)CC2)cc1,130%[activator],7%
O=C(COC(=O)CCNS(=O)(=O)c1ccc(F)c(Cl)c1)Nc1c(Cl)cccc1Cl,-3%,0%
O=C(CCCSc1nc2ccccc2s1)Nc1ccc(C(F)(F)F)cc1,12%,40%[activator]
CCN(CC)S(=O)(=O)c1ccc2c(c1)c(=O)c(C(=O)N1CCN(c3cc(C)ccc3C)CC1)cn2C,-8%,0%
CCCCCOC(=O)c1ccc(OC(=O)c2sc3ncn(Cc4cccc(F)c4)c(=O)c3c2C)cc1,18%,-3%
CCc1ccc2c(c1)-c1ccccc1S(=O)(=O)N2CC(=O)Nc1cccc(C(=O)OC)c1C,119%[activator],25%
COc1cc(OC)c(OC)cc1C=O,-4%[114 µM],-10%[115 µM]
CC(=O)c1ccc(N2CCN(C(=O)c3cc4c(-c5ccc(Cl)cc5)nn(C)c4s3)CC2)cc1,0%,11%
Cc1ccsc1/C=N/NC(=O)C1CC1,25%,80%[activator]
COc1ccccc1CCNC(=O)C(=O)NCC(c1cccs1)S(=O)(=O)c1ccccc1 (stereo not given),-21%,?
Cn1c(C(=O)NCCNC(=O)C2CCCCC2)cc2ccccc21,-2%,7%
COc1cccc(-c2noc(NCCc3ccc(Cl)cc3)n2)c1OC,6%,65%[activator]
O=C(CSc1nnc(NC(=O)Nc2ccccc2)s1)Nc1cccc(F)c1,-1%,45%[activator]
COc1ccc(C2SCCN2S(=O)(=O)c2ccc(C)cc2)cc1OC (stereo not given),20%,5%
CC1CCN(c2oc(COc3ccc(F)cc3)nc2C#N)CC1,-3%,75%[activator]
Cc1cc(C(=O)NCCc2ccccn2)sc1C,-1%,95%[activator]
CCCOc1ccc(C(=O)NC2CCCCNC2=O)cc1OCCC (stereo not given),5%,23%
Cc1ccccc1OCc1ccc(-c2nc(C#N)c(NCCCN(C)C)o2)o1,-5%,0%
Cc1ccc(N2CC(C(=O)NCCS(=O)(=O)N3CCN(c4ccc(F)cc4)CC3)CC2=O)cc1 (stereo not given),-6%,-9%
COc1ccc(OC)c2sc(N3CCN(C(C)=O)CC3)nc12,10%,34%[activator]
CCNC(=O)COC(=O)c1cc(-c2ccc(F)cc2)nc2ccccc12,-6%,60%[activator]
COc1ccc(CCN(C)CCCN2CCc3cc(OC)c(OC)cc3CC2=O)cc1OC,-1%,-6%[11.5 µM]
Cc1occc1-c1nnc(SCC(=O)N2CCc3ccccc32)o1,-11%,-8%
CN(C)c1ccc(CNC(=O)C2CCCN(S(=O)(=O)c3ccc4c(ccn4C)c3)C2)cc1 (stereo not given),52%[activator],?
CCCC(N)c1ccc(C23CC4CC(CC(C4)C2)C3)cc1 (stereo not given),?,?
CC(C)(C(=O)NO)c1ccccc1,-5%,-5%
Cc1ccc(C(O)CNC(=O)Nc2cc(C)ccc2C)cc1 (stereo not given),17%,2%
c1ccc(CN2CCC(NCc3c[nH]c4ccccc34)C2)cc1 (stereo not given),13%,19%
CCOC(=O)C1CCN(S(=O)(=O)c2cc(-c3onc(C)c3C)ccc2C)CC1,32%[activator],20%
CCC/C(=N\NC(=O)Cc1ccc(Cl)c(Cl)c1)c1ccc(Cl)cc1,11%,22%
CCOc1ccc(C(=O)Nc2c(C(=O)N3CCN(c4ccccc4F)CC3)oc3ccccc23)cc1,30%,0%
CCC(=O)N1CCc2cc(CNC(=O)Nc3cc(C)ccc3C)ccc21,-18%,-4%
COC(=O)c1sc2cccc(F)c2c1S(=O)(=O)N1CCN(c2cccc(C)c2)C(C)C1 (stereo not given),7%&18%,0%&-14%
Cc1c(CNC2CCC(C)CC2)c(C(=O)O)c(C)n1Cc1ccccc1F (stereo not given),-17%,-28%
O=C(CC12CC3CC(CC(Br)(C3)C1)C2)NCc1cc(F)cc(F)c1,0%,-2%
CCNc1nc(OC)nc(Oc2ccc(=O)[nH]n2)n1,3%,9%
N#Cc1ccc(Oc2cccc3ccccc23)cc1C#N,-16%,10%
O=C(O)c1ccc2nc(CO)[nH]c2c1,4%,-10%
CCc1ccccc1NC(=O)N1CCN(c2ccc(=O)n(-c3ccc(C)cc3)n2)CC1,-9%,-3%
O=C(CCc1cccs1)Nc1cccc(C(=O)N2CCCC2)c1,-25%,-6%
O=C(O)C(c1c[nH]c2cc(Cl)ccc12)N1CCN(c2ncc(Br)cn2)CC1 (stereo not given),-12%,7%
COc1ccc(-c2nnsc2C(=O)NCCC(C)C)cc1,12%,16%
O=C(Nc1ccc2oc(-c3ccccc3F)nc2c1)c1ccccc1Cl,22%&45%,0%&119%
Cc1ccc(-c2cc(C(=O)Nc3ccccc3C)c3ccccc3n2)o1,37%[activator],77%[activator]
Cc1ccc(CNC(=O)c2nn(C)c(=O)c3ccccc23)cc1,-3%,7%
Fc1ccc(-c2nc(CSc3nnc4c(Cl)cc(C(F)(F)F)cn34)cs2)cc1,-4%,3%
COc1ccc(Nc2ncnc3onc(C)c23)c(OC)c1,-12%,-10%
# Next compounds
SMILES,StopGo RLuc,StopGo FLuc
COc1ccc(-n2cc(COC(=O)NCCc3c[nH]c4ccccc34)nn2)cc1,11%,18%
CCC(=O)Nc1ccc(C)cc1-c1nc2ccccc2n(CC(=O)Nc2ccccc2Cl)c1=O,-6%,-18%
COc1ccc(-c2ccc(=O)n(CC(=O)Nc3ccc(N(C)C)cc3)n2)cc1,9%,10%
Cc1ccc(C2=NC3(CCN(C)CC3)N=C2SCC(=O)Nc2ccc(F)cc2F)cc1,-24%,-17%
COc1nc2ccccc2nc1N1CCC(C(=O)Nc2ccc(NC(C)=O)cc2)CC1,0%,1%
CCOc1ccc(-n2c(Cc3ccccc3)nnc2SCc2nc(-c3ccccc3C)no2)cc1,-15%,-2%
CCc1c(C)nc(SCc2nc(-c3ccccc3C)oc2C)[nH]c1=O,5%,3%
Cc1ccc(OCCn2c(CN(C)C(=O)c3ccco3)nc3ccccc32)cc1,17%,-8%
O=C(c1ccc(Br)s1)N(Cc1cccc(Br)c1)C1CC1,12%,-4%
N#Cc1nc(COc2ccccc2F)oc1NCCCN1CCOCC1,-5%,23%
O=C(/C=C/N1CCCCC1)c1ccc(Br)cc1,4%,148%[activator]
COc1ccc(-c2noc(CN(C(=O)c3ccc(Br)o3)C3CCCCC3)n2)cc1,27%,0%
COc1ccc(CCN2CC(C(=O)NCCc3ccccc3)CC2=O)cc1OC (stereo not given),5%,10%
COc1ccc(N(CC(C)C)S(=O)(=O)c2nnc(NC(=O)c3cccs3)s2)cc1,23%,-21%
O=C(Nc1ccc(OCc2ccccc2Cl)cc1)c1ccc(C(F)(F)F)cc1,0%[1.06 µM],0%
CCCCN(C(=O)Nc1ccc(Cl)cc1)C1CCN(C(C)=O)CC1,3%,16%
O=C(CSc1nnc(-c2ccccc2Br)n1-c1ccccc1)c1ccc(F)cc1,51%[activator],73%[activator]
CN(C)c1ccc(N=C(C#N)c2ccccc2)cc1,-9%,138%[activator]
O=C(CSc1nc(=O)[nH]c2c1CCCC2)Nc1cc(C(F)(F)F)ccc1Cl,-7%,-21%
Cc1[nH]c2ccccc2c1C(=O)COC(=O)CNS(=O)(=O)/C=C/c1ccccc1,-6%,-2%

# Compound profiles, as listed above.
# CCCCN(C(=O)Nc1ccc(Cl)cc1)C1CCN(C(C)=O)CC1 across the screens: StopGo RLuc: 3%; StopGo FLuc: 16%
# Cc1[nH]c2ccccc2c1C(=O)COC(=O)CNS(=O)(=O)/C=C/c1ccccc1 across the screens: StopGo RLuc: -6%; StopGo FLuc: -2%

# The listing picks up; the three compounds before the break are reprinted first.
SMILES,StopGo RLuc,StopGo FLuc
CN(C)c1ccc(N=C(C#N)c2ccccc2)cc1,-9%,138%[activator]
O=C(CSc1nc(=O)[nH]c2c1CCCC2)Nc1cc(C(F)(F)F)ccc1Cl,-7%,-21%
Cc1[nH]c2ccccc2c1C(=O)COC(=O)CNS(=O)(=O)/C=C/c1ccccc1,-6%,-2%
CCn1cc(C(=O)N2CCN(c3ccc(OC)cc3)CC2)c(=O)c2cc(S(=O)(=O)N(C)C3CCCCC3)ccc21,1%,-9%
NC(=O)C1CCN(S(=O)(=O)Cc2c(F)cccc2Cl)CC1,0%,3%
Cc1ccccc1OCC(=O)Nc1nnc(SCc2cc(=O)n3cccc(C)c3n2)s1,-9%,-23%
CC(=O)N1c2c(cc(Br)cc2S(=O)(=O)N2CCN(c3cccc(Cl)c3)CC2)CC1C (stereo not given),3%,?
O=C(Cn1ccccc1=O)Nc1ccc(Cl)cc1Cl,1%,30%[activator]
Cc1cc(C)c2c(=O)cc(C(=O)N(Cc3ccco3)C3CCS(=O)(=O)C3)oc2c1 (stereo not given),-2%,-10%
CN(C(=O)CSc1nnc(NC(=O)Nc2ccccc2)s1)c1ccccc1,-12%,-9%
N#CCN(C(=O)c1cc2c(F)cccc2s1)C1CC1,66%[activator],10%
CN(CCC#N)C(=O)COC(=O)c1cc(=O)[nH]c2ccccc12,-7%,5%
COc1cccc(CN2CCN(S(=O)(=O)c3cc(OC)ccc3OC)CC2)c1,15%,-14%
CCCC1=C(C(=O)OC)C(c2ccc(Cl)cc2)NC(=O)N1C (stereo not given),-13%,-7%
CN(CCOc1ccccc1)c1nc(-c2cccnc2)nc2ccccc12,-20%,-19%
CCN1c2ccccc2-c2nc(SCC(=O)Nc3ccc(C)c(Cl)c3)ncc2S1(=O)=O,41%[activator],-14%
O=C(CCOCCOCCOCCOCCC(=O)Nc1c(I)cc(I)c(C(=O)O)c1I)Nc1c(I)cc(I)c(C(=O)O)c1I,4%,-2%
CCn1cc2nc(SCc3cc(C)ccc3C)n(Cc3ccc(C)cc3)c(=O)c2n1,-11%,0%
CC(C)CN(CC(C)C)C(=S)NCc1ccco1,0%,-15%
Cc1ccc(C)c(NC(=O)CSc2nc(-c3ccccc3)c(C#N)c(=O)[nH]2)c1,-14%,6%
Cc1ccc(N2C(=O)N(CC(=O)NCc3ccccc3)c3ccccc3S2(=O)=O)c(C)c1,-9%,?
N=c1n(CCN2CCCCC2)c2ccccc2n1CC(O)COc1ccccc1 (stereo not given),?,?
Cc1ccc(CN2COc3ccc4c(-c5ccccc5)cc(=O)oc4c3C2)cc1,-5%,-19%
CCc1ccccc1NC(=O)Cn1c(=O)n(CCCS(=O)(=O)C2CCCCC2)c(=O)c2ccccc21,0%,9%
COc1ccc(-c2nc3scc(CCNC(=O)Cc4ccc(F)cc4)n3n2)cc1,4%,-3%
Cc1ccc(C2(CCN3CCN(C)CC3)CCOC(C)(C)C2)cc1 (stereo not given),8%,10%
CCn1c(=N)c(C(=O)NC2CCCC2)cc2c(=O)n3cc(C)ccc3nc21,-4%,-14%
CN1CCN(C(=O)c2ccc3c(c2)N(Cc2cccc(Cl)c2)C(=O)c2ccccc2S3(=O)=O)CC1,60%[activator],-13%
O=C(CCn1c(=O)c2cccn2c2cccnc21)N1CCN(c2ccccc2F)CC1,-8%,6%
CCOC(=O)c1cccc(NC(=O)COc2ccc3c(C)cc(=O)oc3c2)c1,-9%&-7%,13%&-3%
CCN(CC)CCN1C(=O)C(=O)/C(=C(/O)c2ccc(OCc3cccc(C)c3)cc2)C1c1cccnc1 (stereo not given),-9%,60%[activator]
CC(CCN1CCC(C(O)(c2ccccc2)c2ccccc2)CC1)Oc1ccc([N+](=O)[O-])cc1Cl (stereo not given),3%,5%
Cc1cc2oc(C(=O)Nc3ccc(S(=O)(=O)Nc4onc(C)c4C)cc3)cc(=O)c2cc1C,-15%,-14%
CN=C1S/C(=C\c2ccc(SC)cc2)C(=O)N1C,5%,0%

# Screening results (PubChem)

# An unsorted share of the library; 0.53% or so of the library scored in one or more.
